Assay outcomes from PubChem BioAssay.
Cruzain inh noDet = blocks cruzain activity in detergent-free assay; P25779; purified cruzain, Z-FR-AMC fluorescence, no detergent; Potency, µM, inactives show max response, negative = inhibition, usual class: inhibitors; 2.3% of 200,000 active;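 further: plate controls were enzyme without inhibitor for no effect and buffer without enzyme for full effect; nearly all actives have a fitted effect of over 40% in size; top concentration of the series not given in the record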
Target sequence (P25779 123-467 limits assumed): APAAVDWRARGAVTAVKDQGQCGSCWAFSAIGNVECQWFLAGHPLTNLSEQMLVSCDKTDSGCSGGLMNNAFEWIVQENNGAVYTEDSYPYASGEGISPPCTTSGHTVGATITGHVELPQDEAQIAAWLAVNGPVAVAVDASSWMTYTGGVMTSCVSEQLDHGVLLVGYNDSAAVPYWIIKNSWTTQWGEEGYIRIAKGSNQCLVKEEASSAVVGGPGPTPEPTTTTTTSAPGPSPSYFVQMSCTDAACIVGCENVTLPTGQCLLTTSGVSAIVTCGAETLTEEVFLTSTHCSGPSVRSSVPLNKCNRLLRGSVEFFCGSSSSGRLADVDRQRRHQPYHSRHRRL
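Detergent-free condition (0.00005% Triton X-100) in acetate buffer pH 5.5 with DTT. 1.5 nM enzyme and compound were pre-mixed 15 min, then 2 uM Z-FR-AMC substrate added; reaction progress from fluorescence change between first and third reads (60 s).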
SARS PLpro yeast = blocks SARS-CoV papain-like protease in a yeast assay. Potency, µM (doses to about 32.9 µM), for inactives: top-dose activity, positive = growth rescue. S. cerevisiae expressing SARS-CoV PLpro, growth rescue; control for the full effect not named in the record. 0.19% of 330,000 active; active means well fitted rising curve with a large enough effect; inconclusive means small, poorly fitted or top-dose-only effect; inactive means no such curve, though single readings can be large or run the other way; further: 0% is about no effect; nearly all actives have a fitted effect of over 55% in size; growth read by luminescence after 48 h
Lassa entry inh = blocks Lassa virus binding to or entry into cells. Lassa virus pseudotype entry inhibition, cell reporter; control for the full effect not named in the record. Potency, µM (top dose mostly 37.9 µM), for inactives: at the highest dose activity change, negative = inhibition, most hits filed as inhibitors. 1.2% of 300,000 active. AID 540256; active means well fitted inhibition curve with a large enough effect; inconclusive means small, poorly fitted or top-dose-only effect, or effect the other way; inactive means flat fitted curve, though single readings scatter; tested in HEK293 cells; further: on the % scale 0 is the no-effect control and ±100 the full control effect; nearly all actives have a fitted effect of over 50% in size; luciferase read-out
Cruzain Triton = cruzain (T. cruzi) inhibition with detergent; AID 1478; purified cruzain, Z-FR-AMC fluorescence, 0.01% Triton; Potency, µM, inactives show max response, negative = inhibition, actives largely listed as inhibitors; 0.43% of 200,000 active;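 further: plate controls were neutral wells for no effect and buffer without enzyme for full effect; nearly all actives have a fitted effect of over 40% in size; top concentration of the series not given in the record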
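In this qHTS format, compounds are incubated with 1.5 nM cruzain for 15 min at room temperature before 2 uM Z-FR-AMC is added. Release of AMC is followed at 360/450 nm, and progress is taken as the 60 s fluorescence difference.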
NS1 inh = blocks influenza NS1 protein function | S. cerevisiae slowed by influenza A NS1, growth recovery by OD600 | Potency, µM (titrated, usually from 46.1 µM), for the others: at the highest dose activity, positive = more growth | 0.4% of 270,000 active; active means well fitted rising curve with a large enough effect; inconclusive means small, poorly fitted or top-dose-only effect; inactive means no such curve, though single readings can be large or run the other way; further: nearly all actives have a fitted effect of over 50% in size
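A cell-based growth assay was used: compounds that relieve NS1-induced slow growth of budding yeast raise OD600. Assay medium was yeast nitrogen base with ammonium sulphate and -URA supplement, pH 6.0, with 2% galactose.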
Marburg entry inh = blocks Marburg virus binding to or entry into cells; AID 540276; 1.8% of 300,000 active; Potency, µM (titrated, usually from 37.8 µM), for inactives: at the top dose activity change, negative = inhibition, most hits filed as inhibitors; Marburg virus pseudotyped entry inhibition, cell reporter; control for the full effect not named in the record; about a third of the inactives were read at about 46 µM; active = well fitted inhibition curve with a large enough effect; inconclusive = small, poorly fitted or top-dose-only effect, or effect the other way; inactive = flat fitted curve, though single readings scatter; tested in HEK293 cells; about a fifth of its hits are not listed in these tables; further: on the % scale 0 is the no-effect control and ±100 the full control effect; luciferase read-out
RE007 growth inh = less growth of the S. pombe RE007 Vpr strain. AID 651644. 0.21% of 360,000 active. S. pombe RE007 Vpr strain, BacTiter-Glo ATP luminescence, 24 h; control for the full effect not named in the record. Potency, µM (top dose mostly 92.2 µM), for the others: top-dose activity change, negative = less growth; active = well fitted falling curve with a large enough effect; inconclusive = small, poorly fitted or top-dose-only effect; inactive = no such curve, though single readings can be large or run the other way;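 further: on the % scale 0 is the no-effect control and ±100 the full control effect; nearly all actives have a fitted effect of over 50% in size; the assay follows cell death caused by Vpr and the record does not say whether a fall means rescue or toxicity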
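Fission yeast RE007 carrying one integrated HIV-1 vpr copy, seeded at OD 0.01 in PMG+AL medium with 23 nL pinned compound. Grown 24 h at 30 degrees; viability read by BacTiter-Glo luminescence after 5 min.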
2A StopGo = lowers the luciferase signal of an FMDV 2A StopGo reporter; human cells with a luciferase reporter of 2A StopGo recoding; control for the full effect not named in the record; Potency, µM (highest dose often 57.9 µM), for inactives: at the top dose signal change, negative = less light; 1.2% of 410,000 active; AID 1159524; active = well fitted falling curve with a large enough effect; inconclusive = small, poorly fitted or top-dose-only effect; inactive = no such curve, though single readings can be large or run the other way; tested in HEK293T cells; further: on the % scale 0 is the no-effect control and ±100 the full control effect; nearly all actives have a fitted effect of over 45% in size; luciferase light after 4 h
Numbers without * were called inactive; & = joins results of further samples; [ ] = remark or other dose. Unless noted, the call rests on the fitted dose curve; in most records, active means well fitted curve in the direction sought with a large enough effect; inconclusive means small, poorly fitted or top-dose-only effect, or another doubt; inactive means no such curve, though single readings can be large; an effect the other way counts as inactive or inconclusive. Potency means the concentration at half of the fitted maximal effect. Rows were taken by chance; overall some 4.5% were active at least once.

Cc1ccccc1CSc1nsc(N)n1 was read as Cruzain inh noDet -8%, SARS PLpro yeast -7%, Lassa entry inh 17%, Cruzain Triton 0.5%, NS1 inh -94%, Marburg entry inh -22%, RE007 growth inh -8% and 2A StopGo 14%.
For CC1(C)NC(=O)N(CC(O)COc2ccc(-c3ccccc3)cc2)C1=O (centres undefined) the results were Cruzain inh noDet 1%, SARS PLpro yeast 3%, Lassa entry inh 1%, Cruzain Triton 3.8%, NS1 inh -3%, Marburg entry inh 13%[46.1 µM], RE007 growth inh -18% and 2A StopGo -15%.
Screening CC(C)n1cnc2c(oc3ccccc32)c1=O returned SARS PLpro yeast 1%, Lassa entry inh inconclusive, NS1 inh 2%, Marburg entry inh inconclusive, RE007 growth inh -18% and 2A StopGo 66%[activator].
Screening COc1ccc2occ(C(=O)c3coc4ccc(O)c(CN(C)C)c34)c2c1 returned Cruzain inh noDet -22%, SARS PLpro yeast -6%, Lassa entry inh -14%, Cruzain Triton -9.8%, NS1 inh -4%, Marburg entry inh inconclusive, RE007 growth inh 7% and 2A StopGo -4%.
Screening CCCc1cc(=O)oc2cc(Oc3ncccn3)ccc12 returned Cruzain inh noDet 2%, SARS PLpro yeast -3%, Lassa entry inh -5%, Cruzain Triton -3.8%, NS1 inh -7%, Marburg entry inh -2%, RE007 growth inh -1% and 2A StopGo 37%[activator].
`CC(/C=N/NC(=O)c1cc(-c2ccncc2)nc2ccccc12)=C\c1ccco1` gave Cruzain inh noDet inconclusive, SARS PLpro yeast 2%, Lassa entry inh -49%[14.3 µM], Cruzain Triton -8.0%, NS1 inh 7%, Marburg entry inh 2.9µM*, RE007 growth inh -2% and 2A StopGo -26%.
Screening O=C(N/N=C/C=C\c1ccccc1[N+](=O)[O-])c1cc(-c2ccc3ccccc3c2)n[nH]1 returned Cruzain inh noDet 7.9µM*, SARS PLpro yeast 5%, Lassa entry inh inconclusive, Cruzain Triton -13%, NS1 inh 6%, Marburg entry inh inconclusive, RE007 growth inh 8% and 2A StopGo 11%.
For COc1cc(Cl)c(C)cc1NC(=O)CSc1nc2c(c(=O)[nH]1)CCCC2 the results were Cruzain inh noDet 5%, Lassa entry inh -7%[46.1 µM], Cruzain Triton -4.4%, Marburg entry inh -1%[46.1 µM] and 2A StopGo -25%.
`O=c1c(-c2ccc(Cl)cc2)coc2c(CN3CCCCC3)c(O)ccc12` gave SARS PLpro yeast 6%, NS1 inh 17%, RE007 growth inh -8% and 2A StopGo 2%.
`O=C(N/N=C\c1cccc(Cl)c1)c1ccc(Cn2cc(Br)c([N+](=O)[O-])n2)o1` gave Cruzain inh noDet -24%, SARS PLpro yeast inconclusive, Lassa entry inh inconclusive, Cruzain Triton -11%, NS1 inh inconclusive, Marburg entry inh inconclusive, RE007 growth inh -13% and 2A StopGo -14%.
C=CCn1c(=O)c2c(nc(-n3nc(C)cc3C)n2C)n(C)c1=O was read as SARS PLpro yeast 9%, NS1 inh -8%, RE007 growth inh 6% and 2A StopGo -6%.
Screening Cc1nc2ccccc2n1CCOc1ccc(F)cc1 returned SARS PLpro yeast inconclusive, NS1 inh 6%, RE007 growth inh -3% and 2A StopGo -20%.

Among those listed so far, two have a nitro group on carbon:
Screening O=C(N/N=C/C=C\c1ccccc1[N+](=O)[O-])c1cc(-c2ccc3ccccc3c2)n[nH]1 returned Cruzain inh noDet 7.9µM*, SARS PLpro yeast 5%, Lassa entry inh inconclusive, Cruzain Triton -13%, NS1 inh 6%, Marburg entry inh inconclusive, RE007 growth inh 8% and 2A StopGo 11%.
`O=C(N/N=C\c1cccc(Cl)c1)c1ccc(Cn2cc(Br)c([N+](=O)[O-])n2)o1` gave Cruzain inh noDet -24%, SARS PLpro yeast inconclusive, Lassa entry inh inconclusive, Cruzain Triton -11%, NS1 inh inconclusive, Marburg entry inh inconclusive, RE007 growth inh -13% and 2A StopGo -14%.

Remaining list, next part
Screening COc1ccc(CCNC(=O)COc2ccc(S(=O)(=O)N3CCOCC3)cc2)cc1 returned Cruzain inh noDet inconclusive, SARS PLpro yeast -2%, Lassa entry inh 2%, Cruzain Triton 1.1%, NS1 inh -7%, Marburg entry inh -1%&-3% and RE007 growth inh -5%.
`COc1ccccc1CC(=O)NNS(=O)(=O)c1cccc([N+](=O)[O-])c1` gave SARS PLpro yeast 0%, Lassa entry inh 0%[46.1 µM], NS1 inh 6%, Marburg entry inh -12%[46.1 µM], RE007 growth inh -20% and 2A StopGo 13%.
COc1ccc(N/C=C(\C#N)S(=O)(=O)c2ccc(OC)cc2)cc1 was read as SARS PLpro yeast 2%, Lassa entry inh -29%, NS1 inh -1%, Marburg entry inh 0%, RE007 growth inh -10% and 2A StopGo 24%.
For COc1cc(/C=C/C(=O)OCC(=O)Nc2c(C)n(C)n(-c3ccccc3)c2=O)ccc1OCC#N the results were SARS PLpro yeast -1%, NS1 inh 0%, RE007 growth inh 2% and 2A StopGo -9%.
O=C(O)CN1C(=O)C2C3CC(C2C1=O)C1C(c2ccc(F)cc2)c2sc(=O)[nH]c2SC31 (centres undefined) was read as SARS PLpro yeast 2%, Lassa entry inh -11%, Marburg entry inh inconclusive, RE007 growth inh 11% and 2A StopGo 3%.
Screening S=C(NCc1cccnc1)NCc1cccnc1 returned SARS PLpro yeast 1%, Lassa entry inh inconclusive, Marburg entry inh -7%, RE007 growth inh 11% and 2A StopGo 4%.
`O=C(COC(=O)CCCc1nc2ccccc2s1)Nc1ncc(Cl)cc1Cl` gave Cruzain inh noDet -1%, SARS PLpro yeast 4%, Lassa entry inh -21%, Cruzain Triton -3.8%, NS1 inh -12%, Marburg entry inh 7%, RE007 growth inh 0% and 2A StopGo 7%.
COc1cc2c(cc1OC)/C(=C/c1ccc(Br)cc1)C(=O)OC2 was read as Cruzain inh noDet -7%, SARS PLpro yeast -48%, Lassa entry inh inconclusive, Cruzain Triton -8.3%, NS1 inh -16%, Marburg entry inh -33%, RE007 growth inh 30% and 2A StopGo inconclusive.
`COC(=O)c1ccc2c(c1)N(Cc1nc(-c3cccc(C)c3)oc1C)C(=O)C1CCCN21` (centres undefined) gave Cruzain inh noDet inconclusive, SARS PLpro yeast 8%, Cruzain Triton -11% and NS1 inh 8%.
`Cc1csc(C)[n+]1CC(=O)c1ccccc1` gave SARS PLpro yeast 2%, Lassa entry inh 4%, NS1 inh 12%, Marburg entry inh 5%, RE007 growth inh 30% and 2A StopGo -7%.
O=C(NCC(=O)N(c1ccc(F)cc1)C(C(=O)NC1CCCC1)c1cccnc1)c1ccco1 (centres undefined) was read as SARS PLpro yeast 1%, Lassa entry inh 7%, NS1 inh -14%, Marburg entry inh 6%[46.1 µM], RE007 growth inh 4% and 2A StopGo -3%.
CCOc1ccc(NC(=O)CN2CCN(C(=O)C3CCCO3)CC2)cc1 (centres undefined) was read as SARS PLpro yeast 1%, Lassa entry inh 9%, NS1 inh 6%, Marburg entry inh 2%, RE007 growth inh 1% and 2A StopGo -16%.
COc1ccc(N2CCN(S(=O)(=O)c3cc(Br)cnc3N)CC2)cc1 was read as SARS PLpro yeast 2%, Lassa entry inh 11%[46.1 µM], NS1 inh 9%, Marburg entry inh 15%[46.1 µM], RE007 growth inh 5% and 2A StopGo 0%.
O=C(COc1ccccc1)NNc1nc2ccccc2s1 was read as SARS PLpro yeast 3%, NS1 inh 0%, RE007 growth inh 4% and 2A StopGo 12%.
Screening CC1CCc2sc3ncnc(N4CCN(CCO)CC4)c3c2C1 (centres undefined) returned SARS PLpro yeast -1%, Lassa entry inh -9%[46.1 µM], NS1 inh -7%, Marburg entry inh inconclusive, RE007 growth inh 4% and 2A StopGo -12%.
Screening CCn1cc(C(=O)N2CCc3ccccc32)c(=O)c2cc(S(=O)(=O)N3CC(C)CC(C)C3)ccc21 (centres undefined) returned Cruzain inh noDet 11%, SARS PLpro yeast inconclusive, Lassa entry inh 2%&-23%, Cruzain Triton -13%, NS1 inh 25%, Marburg entry inh inconclusive, RE007 growth inh 1% and 2A StopGo -9%.
`O=C(CCCNC(=O)c1ccc(Cl)cc1)Nc1cccc(F)c1` gave SARS PLpro yeast 8%, Lassa entry inh -20%, NS1 inh 1%, Marburg entry inh -4%[46.1 µM], RE007 growth inh 9% and 2A StopGo -28%.
For O=C(CN1CCN(S(=O)(=O)c2ccc3ccccc3c2)CC1)Nc1ccc(N2CCOCC2)cc1 the results were Cruzain inh noDet inconclusive, SARS PLpro yeast 23%, Cruzain Triton -6.9%, NS1 inh 21%, Marburg entry inh 0%, RE007 growth inh -16% and 2A StopGo -10%.
For Cc1cc(C(=O)COc2ccc(F)cc2Br)c(C)n1C the results were SARS PLpro yeast -3%, Lassa entry inh -1%[46.1 µM], Marburg entry inh -4%[46.1 µM], RE007 growth inh -22% and 2A StopGo 18%.
COc1ccc(CCNC(=O)c2cc3c(=O)n4ccccc4nc3n(Cc3ccco3)c2=N)cc1OC was read as SARS PLpro yeast -4%, NS1 inh 11%, RE007 growth inh 4% and 2A StopGo -6%.
`C=CCn1c(SCC(=O)N2CCOCC2)nc2ccccc2c1=O` gave SARS PLpro yeast 0%, Lassa entry inh 6%[46.1 µM], NS1 inh -1%, Marburg entry inh inconclusive, RE007 growth inh 6% and 2A StopGo -2%.
`COc1nc(Nc2ccccc2)nc(OC)n1` gave Lassa entry inh -5%, Marburg entry inh 18%[46.1 µM], RE007 growth inh 31% and 2A StopGo 27%.
COc1ccc(C(=O)N2CC(=O)Nc3ccccc32)cc1S(=O)(=O)N1CCCC1 was read as SARS PLpro yeast 0%, Lassa entry inh 13%, NS1 inh 7%, Marburg entry inh -1%[46.1 µM], RE007 growth inh 1% and 2A StopGo 3%.
For Cc1ccc(C(=O)c2nocc2C(=O)c2cccs2)cc1 the results were Cruzain inh noDet 5%, SARS PLpro yeast -1%, Lassa entry inh 0%, Cruzain Triton -3.4%, NS1 inh -66%, Marburg entry inh 1%, RE007 growth inh -11% and 2A StopGo 21%.
Cc1cc(=O)nc2c3ccccc3n(CC(=O)NCCCN3CCCC3=O)n12 was read as SARS PLpro yeast 1%, Lassa entry inh 3%[46.1 µM], NS1 inh 4%, Marburg entry inh 25%[46.1 µM], RE007 growth inh 11% and 2A StopGo -8%.
